# GLA inh pH 4.5: inhibitors of human alpha-galactosidase A at pH 4.5. P06280. purified enzyme, 4-MU-alpha-Gal fluorescence, pH 4.5. activity change, negative = inhibition, % at 105 µM. 230,000 tested, under 10 active; inconclusive = small, poorly fitted or top-dose-only inhibition, or a rising curve; inactive = flat fitted curve, though single readings scatter; no compound was filed as active;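 also: 0% = full activity with enzyme and -100% = basal without enzyme; dose as in the result columns while the protocol names 77 µM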
# miR-21 reporter: miR-21 reporter, rising signal; HeLa miR-21 FLuc reporter, luciferase, 48 h; AID 2288; Potency, µM (highest dose often 38.3 µM), without a hit: at the highest dose reporter change, positive = more light; 340,000 tested, under 10 active; active = well fitted rising curve with a large enough effect; inconclusive = small, poorly fitted or top-dose-only effect; inactive = no such curve, though single readings can be large or run the other way;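 also: % of control where 0% means no effect; miR-21 action dims this reporter so a rising signal means less miR-21 action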
#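 HeLa miR-21-FLuc reporter line, endogenous miR-21; 2000 cells/well in DMEM/10% FBS; compound titration up to ~40uM final, 48 h, 37 degree Celsius; luciferase detection reagent, 15 min lysis, CCD luminescence.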
# Rango-impB inh: Rango-importin beta binding inhibition; Q14974; Rango CFP/YFP FRET sensor + importin beta, 45 min; Potency, µM (doses to about 92.2 µM), for inactives: top-dose inhibition of complex formation; hit rate 0.031% among 340,000; AID 540263; active = rising FRET ratio curve, often small or poorly fitted; inconclusive = mostly compound fluorescence or quenching in the first reads; inactive = flat curves in all reads;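 also: potency is read from the fitted curve at half-maximal effect; 0% = DMSO wells and 100% = buffer wells lacking importin beta; nearly all actives have a fitted effect of over 15% in size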
# Target sequence (Q14974 whole entry, looked up): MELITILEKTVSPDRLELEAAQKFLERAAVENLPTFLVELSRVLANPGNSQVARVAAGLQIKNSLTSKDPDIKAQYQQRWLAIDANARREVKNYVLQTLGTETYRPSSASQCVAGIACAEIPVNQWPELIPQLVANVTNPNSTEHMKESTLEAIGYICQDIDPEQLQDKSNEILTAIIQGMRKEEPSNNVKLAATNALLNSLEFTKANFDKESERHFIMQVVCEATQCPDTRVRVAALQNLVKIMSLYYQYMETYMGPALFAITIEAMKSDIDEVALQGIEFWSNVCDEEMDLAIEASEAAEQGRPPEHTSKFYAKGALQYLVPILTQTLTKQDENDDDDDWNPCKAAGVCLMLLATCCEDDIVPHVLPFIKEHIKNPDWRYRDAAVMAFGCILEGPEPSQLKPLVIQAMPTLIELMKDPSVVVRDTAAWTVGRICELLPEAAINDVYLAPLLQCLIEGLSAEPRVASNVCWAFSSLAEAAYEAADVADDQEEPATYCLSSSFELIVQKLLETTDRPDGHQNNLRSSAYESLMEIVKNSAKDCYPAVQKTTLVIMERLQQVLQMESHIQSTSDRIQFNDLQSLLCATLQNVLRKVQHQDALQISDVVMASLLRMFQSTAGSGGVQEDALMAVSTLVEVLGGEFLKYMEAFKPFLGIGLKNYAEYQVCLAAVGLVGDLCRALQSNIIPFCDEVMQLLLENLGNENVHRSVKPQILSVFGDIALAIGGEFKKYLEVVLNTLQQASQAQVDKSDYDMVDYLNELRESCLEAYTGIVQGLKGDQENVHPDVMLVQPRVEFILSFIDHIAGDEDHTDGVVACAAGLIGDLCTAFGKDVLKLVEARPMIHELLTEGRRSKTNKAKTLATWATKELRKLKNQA
#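 FRET biosensor Rango (snurportin 1 IBB between N-terminal EYFP and C-terminal Cerulean), 50 nM in PBS/1 mM DTT/0.02% Tween-20/0.1% BSA, preincubated 5 min RT with compound; 0.125 microM importin beta added, 45 min RT, CFP/YFP FRET ratio read.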
# Rango release inh: inhibition of RanGTP-driven Rango-importin beta dissociation. hit rate 0.071% among 340,000. Biochemical FRET Rango-importin beta, RanGTP-induced dissociation. O95149+P62826. Potency, µM (highest dose often 46.1 µM), without a hit: at the highest dose activity change, negative = inhibition; active means falling FRET ratio curve, often poorly fitted, with flat reads before Ran was added; inconclusive means other falling curves, or compound fluorescence or quenching; inactive means flat or rising ratio curve;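 also: potency is read from the fitted curve at half-maximal effect; % of control where 0% means no effect; nearly all actives have a fitted effect of over 45% in size; -100% = wells without RanGTP and RCC1; the record marks most hits as doubtful in a second field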
#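 FRET read at 45 min, room temperature: inhibitors block the CFP/YFP signal rise when RanGTP (0.6 uM Ran, 2 mM GTP, 0.2 uM RCC1) frees Rango (0.1 uM) from importin beta (0.25 uM). Pre-read after 5 min compound exposure flags interference.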
# An asterisk follows results filed as active; ? = inconclusive; / = not tested or not shown; & = joins results of further samples. The list is partial, so the mix of outcomes need not match the whole.
GLA inh pH 4.5 | miR-21 reporter | Rango-impB inh | Rango release inh | Molecule
0 | -1% | 6.5% | 0% | CC1CCc2c(sc(NC(=O)COC(=O)c3ccccc3NCc3ccco3)c2C#N)C1 (centres undefined)
0 | -16% | -5.5% | -22% | Cc1ccccc1-c1nc(CN2CCSCC2)c(C)o1
2 | -1% | 6.2% | 26% | O=C(COc1ccc(-c2nnc(N3CCCCC3)c3ccccc23)cc1)N1CCCCC1
/ | / | ? | -12% | CCOC(=O)c1c(C)[nH]c(C(=O)C(C)OC(=O)c2ccc(NC(=O)CC#N)cc2)c1C (centres undefined)
8 | 0% | 0.8% | -26% | COc1cccc(CN2CCN(Cc3c(C)nn(C(C)C)c3C)CC2CCO)c1 (centres undefined)
/ | -3% | -1.0% | 1% | CC1CCN(S(=O)(=O)c2ccc(NC(=O)c3ccco3)cc2)CC1
-3 | -2% | 1.5% | -2% | Cc1cc(OCc2nn[nH]n2)c2c(-c3ccccc3)cc(=O)oc2c1
6 | -1% | 4.1% | ? | O=C(O)CCCC(=O)NNC(=O)c1cccc(Br)c1
-4 | -3% | 0.7% | 18% | Cc1ccc(NC(=O)CN2CCCCC2)c2c1CC(C)(C)O2
/ | 1% | 0.0% | 2% | COc1cc(/C=N/NC(=O)CC(=O)NC2CCCCC2)ccc1O
/ | -13% | -0.9% | 1% | CCOC(=O)CCNC(=O)c1ccc2nc(C3CCCCC3)oc2c1
-19 | -54% | -0.3% | -14% | Cc1ccc(N/N=C(\C#N)C(=N)N2CCCCCC2)cc1
/ | 0% | 0.2% | -4% | O=C(COC(=O)CN1C(=O)c2ccccc2C1=O)NC1CCCC1
1 | 0% | 1.6% | 2% | Cc1nnc(SCC(=O)NCC2CCCCC2)n(N)c1=O
/ | / | -2.4% | 3% | Cc1ccc(OCCC(=O)OCC(=O)NC(=O)NCc2ccccc2)cc1
0&0&-1 | -1% | 5.9% | 1% | NC(N)=NS(=O)(=O)c1ccc(N)cc1
9 | 1% | -1.0% | 1% | Cc1cc(NC(=O)COC(=O)c2ccco2)no1
/ | / | -2.7% | 42% | O=C1CC(NS(=O)(=O)c2ccc([N+](=O)[O-])cc2)CN1c1cccc(F)c1 (centres undefined)
/ | -2% | -0.2% | -29% | Cc1ccc(S(=O)(=O)N2CCN(C(=O)CCn3cncn3)CC2)cc1
7 | 4% | 0.4% | -2% | CCCNC(=O)Nc1cccc(NC(C)=O)c1
-1 | 0% | 3.7% | 2% | COc1cccc(NC(=O)COC(=O)c2cc(S(=O)(=O)N3CCOCC3)ccc2C)c1
/ | / | -2.6% | 1% | O=C(OCCc1cc2ccccc2c(=O)o1)c1cccc(Br)c1
-3 | -6% | -0.2% | 11% | CCOc1c(Cl)cc(/C=N/O)cc1OC
-2 | -2% | -1.6% | 2% | O=C(c1cc2c(s1)CCCC2)N1CCN(Cc2ccc3c(c2)OCO3)CC1
1 | -2% | 7.4% | -12% | COc1ccccc1OCc1ccc(C(=O)NCC(C)C)o1
/ | 0% | 2.9% | 18% | COc1ccc(C)cc1C(=O)CCC(=O)NCCc1ccc(S(N)(=O)=O)cc1
/ | / | 0.2% | -10% | CC(OC(=O)c1cc(=O)c2ccccc2o1)C(=O)c1ccccc1 (centres undefined)
-7 | -3% | 2.4% | -1% | COc1ccc(N2CCN(C(=O)COc3ccc(Cl)cc3Cl)CC2)cc1
-2 | 3% | ? | 0% | O=P(c1ccccc1)(c1ccccc1)c1nc(-c2ccccc2)oc1NCc1ccccc1
-3 | -7% | 1.2% | 29% | Cc1cccc(CCNS(=O)(=O)c2ccc3c(c2)n(C)c(=O)c(=O)n3C)c1
/ | / | 1.3% | 4% | COc1cccc(N2CCN(C(=O)CCNS(=O)(=O)c3ccc(F)c(F)c3)CC2)c1
1 | -8% | 2.8% | -12% | Cn1c(=O)c(C(=O)CCl)c(N)n(Cc2ccccc2)c1=O
5 | -1% | -3.6% | 10% | Cn1c(SCC(=O)Nc2cccc(C(=O)O)c2)nnc1-c1cc2cc(Br)ccc2o1
5 | -23% | -0.4% | -7% | COc1ccc(CNC(=O)c2ccc(SC)cc2OC)cc1
/ | / | -3.3% | -18% | COCCN(C(=O)c1ccc(N2C(=O)c3ccccc3C2=O)cc1)c1c(N)n(CC(C)C)c(=O)[nH]c1=O
-11 | -2% | 7.0% | -12% | O=C(c1cc(-c2ccc(Cl)cc2)n(-c2ccc(Cl)c(Cl)c2)n1)N1CCOCC1
/ | -3%&-5% | 2.3% | 6% | Cc1ccc(CNC(=O)CC(C)S(=O)(=O)c2cc3c(cc2C)NC(=O)CO3)cc1 (centres undefined)
9 | 2% | -2.9% | 1% | CCN1CCCC1CN(Cc1cc2ccc(C)cc2[nH]c1=O)C(=S)Nc1ccc(OC)cc1 (centres undefined)
1 | 0% | -1.4% | -1% | O=C(O)CCS(=O)(=O)c1ccccc1Cl
/ | -10% | 1.2% | 1% | Cc1cc(C)c(NC(=O)COC(=O)C2CCC2)c(Cl)c1
/ | -9% | -2.4% | 11% | O=C(Nc1ccc(Cl)cn1)c1ccc2[nH]c(=O)c(=O)[nH]c2c1
/ | / | 1.2% | -15% | CC(=O)C[C@H]1c2ccccc2S(=O)(=O)N1C1CCCC1
/ | -1% | 0.6% | 16% | CCOc1ncccc1C(=O)NNC(=O)c1ccccc1-n1cccc1
/ | -38% | -3.3% | 9% | COc1ccc(CCNC(=O)c2cc(COc3c(C)cccc3C)on2)c(OC)c1
0 | 0% | 5.6% | -27% | COc1cc2[nH]c(=S)n(CCCN3CCOCC3)c(=O)c2cc1OC
-5 | 7% | 0.2% | -7% | COc1cccc(OCC(=O)Nc2ccccc2-c2ccccc2)c1
1 | -1% | 4.2% | 1% | COc1ccccc1N1CCN(Cc2cccc(OC)c2OC)CC1
2 | 1% | -3.7% | 13% | Cc1ccc(CCCOC(=O)C[N+]2(C)CCCCC2)cc1
-1 | -1% | -2.1% | -8% | Cc1ccc(N2NC(=O)/C(=C/C=C/c3ccco3)C2=O)cc1C
-9 | 0% | 0.4% | 11% | O=c1sc(Nc2ccccc2)nc2ccccc12

# Record cards, from the list above.
# Entry for Cn1c(SCC(=O)Nc2cccc(C(=O)O)c2)nnc1-c1cc2cc(Br)ccc2o1 → GLA inh pH 4.5 = 5; miR-21 reporter = -1%; Rango-impB inh = -3.6%; Rango release inh = 10%
# Entry for Cc1ccc(CNC(=O)CC(C)S(=O)(=O)c2cc3c(cc2C)NC(=O)CO3)cc1 (centres undefined) → GLA inh pH 4.5 = /; miR-21 reporter = -3%&-5%; Rango-impB inh = 2.3%; Rango release inh = 6%

# Remaining list, next part:
GLA inh pH 4.5 | miR-21 reporter | Rango-impB inh | Rango release inh | Molecule
0 | -14% | ? | ? | CN(C)CCOC(=O)c1ccc2[nH]c3c(c2c1)CSCC3
-19 | 1% | -2.8% | 1% | CC(=O)N(CN1C(=O)CCC1=O)c1cccc(Cl)c1
-3 | -1% | 2.7% | -1% | CC1CC(C)(C)NC(=S)N1CC(=O)NCc1ccc(F)cc1 (centres undefined)
-4 | -25% | 3.8% | 20% | CN1CCN(Cc2ccc(OCc3ccccc3)cc2)CC1
-7 | -2% | -3.3% | -1% | COC(=O)CNC(=O)CSc1nnc2cc(C)c3ccccc3n12
1 | -2% | 0.9% | 0% | CC(=O)Nc1ccc(N(C)C)cc1[N+](=O)[O-]
/ | / | 4.6% | -1% | CCN(CC)CCCn1c2c(c(SCC(=O)Nc3ccc(F)c(F)c3)nc1=O)CCC2
-4 | 3% | ? | -15% | COc1ccc(OCC(O)CNC(=O)c2ccc(C)cc2)cc1 (centres undefined)
/ | 0% | 3.4% | -16% | CCOc1ccccc1Oc1nc(-c2ccccc2O)nc2ccccc12
-1 | -3% | -0.7% | 8% | COc1cc2c(cc1OC)C1C/C(=N\O)C(CC(C)C)CN1CC2 (centres undefined)
/ | 4% | 2.0% | -18% | COc1cccc(NCc2cc(=O)oc3cc(C)c(C(C)C)cc23)c1
-3 | -3% | 2.7% | 11% | COC(=O)c1cc(C(=O)Nc2nnc(CC(C)C)s2)cc([N+](=O)[O-])c1
3 | -2% | 2.8% | 3% | O=C(Nc1cccc(C(F)(F)F)c1)C(SCCO)c1ccccc1 (centres undefined)
3 | -3% | -4.9% | 0% | COc1ccc(C(=O)NC(NC(=O)c2ccc(OC)c(OC)c2)c2ccccc2F)cc1OC
0 | -5% | 4.8% | 15% | O=C(O)c1ccc(NC(=O)C2C3CCC(C3)C2C(=O)O)cc1 (centres undefined)
-10&-2 | -1% | ? | -8% | C[C@]1(C(=O)NCCN2CCOCC2)C=C[C@@H](Cc2ccccc2)N1C(=O)c1ccccc1
-6 | -58% | -4.6% | 17% | c1ccc(Cc2nc(-c3ccccn3)no2)cc1
1 | -6% | 0.0% | -9% | Cc1cc(S(=O)(=O)NCC(C)C)ccc1OCC(=O)NCc1ccco1
2 | -5% | -2.9% | -7% | COC(=O)CN1C(=O)C(O)(CC(=O)c2ccc(Cl)cc2)c2ccccc21 (centres undefined)
16 | -4% | -2.4% | 51% | Cc1cc(C)n(Cc2ccc(C(=O)NN)o2)n1
-16 | 0% | 0.3% | 4% | CNc1nc(OCC#N)nc(N2CCCCC2)n1
5 | -6% | 0.7% | 16% | CCC1SC2=NCCN2C1(O)c1ccc(Cl)cc1 (centres undefined)
6 | -18% | -1.9% | -4% | CCOc1ccc(-c2nnn(CC(=O)NCc3ccc4c(c3)OCO4)n2)cc1
/ | / | -0.9% | 8% | CN(CC(=O)Nc1ccc(Cl)cc1)C(=O)c1ccc(-n2cncn2)c([N+](=O)[O-])c1
3 | -2% | 3.8% | 1% | CCCC(NS(=O)(=O)c1ccc(C)cc1)C(=O)O (centres undefined)
5 | -9% | -4.5% | 12% | COc1cc(C(=O)N2CCN(C(=O)COc3ccc4ccccc4c3)CC2)cc(OC)c1OC
6 | -20% | -4.4% | -13% | O=C(O)c1ccc(OCc2cn3ccccc3n2)cc1
2 | -9% | 5.4% | 21% | COc1cc(/C=C/C(=O)O)cc(S(=O)(=O)Nc2cccc(SC)c2)c1OC
/ | -2% | -2.8% | -8% | CCOc1ccccc1N(C(=O)c1snc(C(N)=O)c1N)C(C(=O)NCC1CCCO1)c1ccc2ncccc2c1 (centres undefined)
/ | 0% | 0.2% | 5% | CN(CC(=O)Nc1ccc(Cl)cc1)C(=O)CCC1CCCC1
/ | -1% | -0.1% | 14% | O=[N+]([O-])c1ccc(O)c(CSc2nnnn2-c2ccccc2)c1
/ | -2% | 4.1% | 0% | CC(C)(C)OC(=O)N1Cc2ccccc2C[C@H]1C(=O)NCC(=O)NCC1CCCO1 (some centres undefined)
7 | -12% | -0.8% | 6% | CC1CC(=O)N(CC(=O)Nc2ccc3c(c2)OCO3)c2ccccc2S1 (centres undefined)
0 | 1% | 0.1% | -1% | O=C(Nc1c(C(=O)N2CCCCC2)cnn1-c1ccccc1)c1ccccc1
/ | / | -1.0% | 0% | O=C(COC(=O)c1ccccc1)NC(=O)NC1CCCC1
/ | -3% | 0.3% | 3% | COc1cccc(/C=C/c2[nH]c(=O)[nH]c(=O)c2[N+](=O)[O-])c1O
/ | -17% | -0.6% | -2% | COC(=O)CNc1nc(Cl)nc(NC2CCCCC2)n1
-22 | 1% | 0.7% | 7% | CCOC(=O)c1cccc(NC(=O)CNC(=O)C2CCCCC2)c1
/ | -19% | 0.4% | -19% | CCCN1Cc2cccc(C(=O)NCCc3cccc(C)c3)c2C1=O
0 | 0% | -0.6% | 11% | CC1(C)CC(=O)C(C=NCc2ccccn2)=C(O)C1
/ | / | 6.9% | 0% | NNC(=O)c1nnsc1-c1csnn1
/ | 0% | 3.3% | -9% | COc1ccccc1NC(=O)C1CCCN(C(=O)NCc2ccccc2)C1 (centres undefined)
4 | -3% | -1.6% | 15% | Fc1ccc(NC(=S)Nc2nccs2)cc1
6 | -11% | 1.2% | 4% | O=C(O)CCc1nc2cc(Cl)ccc2n(Cc2ccccc2)c1=O
-2 | -3% | 3.2% | 1% | CCC1C(=O)Nc2ccccc2N1C(=O)c1ccc(Cl)nc1 (centres undefined)
/ | 1% | -1.8% | ? | CCOC(=O)Cn1c(-c2ccc(OC)cc2)c(-c2ccc(OC)cc2)nnc1=O

# Source: PubChem (National Center for Advancing Translational Sciences (NCATS))
